Source: PubChem BioAssay (National Center for Advancing Translational Sciences (NCATS))
D2 ag = human D2 receptor agonism in beta-arrestin assay; DiscoveRx PathHunter D2 beta-arrestin, luminescence, 90 min; 100% = 57 uM dopamine signal; activation, % (test concentration not listed); 360,000 compounds, 0.084% hits; in the data active = activation above about 40%; inconclusive = about 15% to 40%; inactive = below about 15%; note: compound concentration not given in the record; the text of the record calls up to 30% inactive
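DiscoveRx PathHunter D2 beta-arrestin cells (2,100/well) attached overnight, then compound-stimulated 90 min at 37 C in HBSS/10 mM HEPES/0.1% Tween-20 buffer; beta-galactosidase complementation read by luminescence after 1 h at ambient temperature. Dopamine 57 uM final (EC100) as control.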
D2 potentiator = potentiates the human D2 dopamine receptor allosterically | DiscoveRx D2 beta-arrestin cells, luminescence, 90 min; 100% = 57 uM dopamine signal | AID 624464 | potentiation, % (no concentration beside the values) | 360,000 compounds, 0.23% hits | P14416; active = potentiation of 50% or more; inconclusive = 30% to 50%; inactive = 30% or less;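 note: compound concentration not given in the record; tested on top of an EC20 dose of dopamine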
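D2 cells co-treated with compound plus 50 nM dopamine (EC20) for 90 min at 37 deg C to detect potentiation. Beta-arrestin recruitment was read as enzyme-fragment luminescence after 1 h at ambient temperature. Full response was set by 57 uM dopamine.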
CtBP-E1A blk = inhibitors of CtBP/E1A interaction; AlphaScreen GST-E1A/His-CtBP binding, 1536-well; active compounds read low; control for the full effect not named in the record; activity change, % (test concentration not listed); 340,000 compounds, 0.49% hits; AID 651724; in the data active means activity change below about -65%; inconclusive means about -30% to -65%; inactive means above about -30%; note: % is set by controls: 0 for no effect and ±100 for the full control effect
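AlphaScreen with 125 nM GST-E1A and 125 nM His-CtBP (5X stocks) in Tris pH 8.0, 300 mM NaCl, BSA, Tween 20, TCEP. Compounds preincubated 2 h at 37 deg C, then glutathione donor/nickel acceptor beads added for 1 h at 37 deg C in dark.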
Six1-Eya2 blk = Six1/Eya2 interaction inhibition; activity change, % (concentration not given with the values); AID 651725; 360,000 compounds, 0.56% hits; AlphaScreen GST-Six1/His-Eya2 binding, biochemical; active compounds read low; control for the full effect not named in the record; in the data active = activity change below about -65%; inconclusive = about -30% to -65%; inactive = above about -30%; note: % is set by controls: 0 for no effect and ±100 for the full control effect
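Six1/Eya2 binding was read as AlphaScreen signal after compounds were pinned into GST-Six1 plus His-tagged Eya2 (5X stock 250/500 nM) in pH 8.0 Tris/NaCl/TCEP buffer, beads added, then incubated 1 h, 37 C, dark.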
TRPV1 PAM = enhances activation of the human vanilloid receptor TRPV1; Q8NER1; TRPV1-expressing cells, Fluo-8 calcium influx, capsaicin EC20 potentiation; host cell line not named in the record; control for the full effect not named in the record; potentiation, % at 8.33 µM; 320,000 compounds, 0.02% hits; AID 540277; active means potentiation above 80%; inconclusive means 30% to 80%; inactive means below 30%; note: 0% is about no effect
Target sequence (Q8NER1 whole entry, looked up): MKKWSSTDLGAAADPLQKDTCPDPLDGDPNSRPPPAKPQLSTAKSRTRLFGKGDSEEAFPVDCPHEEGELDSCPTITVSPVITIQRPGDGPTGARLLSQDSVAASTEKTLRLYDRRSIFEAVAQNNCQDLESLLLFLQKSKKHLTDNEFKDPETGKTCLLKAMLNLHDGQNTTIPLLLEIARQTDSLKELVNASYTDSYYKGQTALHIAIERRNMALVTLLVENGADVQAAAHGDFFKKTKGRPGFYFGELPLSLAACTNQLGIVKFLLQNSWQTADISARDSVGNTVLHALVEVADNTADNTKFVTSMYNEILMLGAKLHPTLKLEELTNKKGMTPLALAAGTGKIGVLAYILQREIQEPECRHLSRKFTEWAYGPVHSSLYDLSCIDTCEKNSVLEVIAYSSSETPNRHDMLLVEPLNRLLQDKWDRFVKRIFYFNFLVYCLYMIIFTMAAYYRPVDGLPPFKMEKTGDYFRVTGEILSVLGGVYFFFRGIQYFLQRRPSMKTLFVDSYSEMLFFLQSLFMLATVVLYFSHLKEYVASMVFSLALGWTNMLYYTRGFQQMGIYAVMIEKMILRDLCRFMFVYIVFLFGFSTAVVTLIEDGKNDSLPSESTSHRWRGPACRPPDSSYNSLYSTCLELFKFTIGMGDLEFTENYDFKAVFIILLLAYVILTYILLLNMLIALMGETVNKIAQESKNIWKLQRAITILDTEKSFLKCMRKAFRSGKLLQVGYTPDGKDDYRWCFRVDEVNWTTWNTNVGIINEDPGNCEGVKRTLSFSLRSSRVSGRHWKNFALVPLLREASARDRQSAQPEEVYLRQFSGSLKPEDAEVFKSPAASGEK
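TRPV1-expressing cells were cultured overnight at 35.5C and loaded with Fluo-8 calcium dye for 40 to 90 min at room temperature. After a 10 s baseline, compound was added and calcium influx was read kinetically for 3 min (ex 480/em 520 nm).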
PINK1 expr mod = changes PINK1 expression; PINK1 immunofluorescence, high-content cytometry, 24 h; Potency, µM (top dose mostly 76.6 µM), without a hit: top-dose activation (PINK1 increase), most hits filed as activators; 410,000 compounds, 0.2% hits; AID 624263; active = well fitted activation curve with a large enough effect; inconclusive = small, poorly fitted or top-dose-only effect; inactive = flat fitted curve, though single readings scatter; cell line not stated here;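 note: potency is the fitted concentration of half-maximal effect; % of control where 0% means no effect; nearly all actives have a fitted effect of over 65% in size; a mitochondrial uncoupler was the plate control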
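PINK1 protein, normally rapidly degraded, was detected by immunofluorescence after 24 hour compound treatment of a stable cell line. Titration data (5 concentrations) came from laser-scanning cytometry, with CCCP-treated wells as controls.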
Sfp PPTase inh = inhibitors of Bacillus subtilis Sfp phosphopantetheinyl transferase; Biochemical Sfp PPTase activity, qHTS; Q9F4F7; AID 1490; Potency, µM, inactives show max response, negative = inhibition, actives largely listed as inhibitors; 310,000 compounds, 3.5% hits; active = well fitted inhibition curve with a large enough effect; inconclusive = small, poorly fitted or top-dose-only effect, or another doubt; inactive = no such curve, though single readings can be large or run the other way;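 note: the enzyme is Sfp with the accession as filed and its product quenches rhodamine fluorescence; potency is the fitted concentration of half-maximal effect; 0% = enzyme reaction without inhibitor and -100% = no enzyme wells; top concentration of the series not given in the record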
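Fluorescence-quenching assay with 15 nM Sfp, 5 uM rhodamine-CoA and 12.5 uM BHQ-2-labelled ybbR peptide in pH 7.6 Hepes/MgCl2 buffer. Enzyme was pre-incubated with compound for 15 min at room temperature. Rate was taken from the 30-min fluorescence change (525/598 nm).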
The depositor's hits bear a star; ? = inconclusive; . = not tested or not shown; [ ] = another dose, or the depositor's remark.

SMILES | D2 ag | D2 potentiator | CtBP-E1A blk | Six1-Eya2 blk | TRPV1 PAM | PINK1 expr mod | Sfp PPTase inh
CC1OC(C)(C)OC1C1CNc2nc(NC(=O)C(C)(C)C)[nH]c(=O)c2N1C(=O)c1cccnc1 (stereo not given) | -2.1 | 7 | 0 | 5 | -17 | ? | 20%
O=c1[nH]c(CSc2cccc[n+]2[O-])nc2ccccc12 | -3.9 | -12 | . | 1 | 2 | 1.4% | 45µM*
Cc1onc(-c2ccccc2)c1C(=O)N/N=C/c1cc2c(cc1Cl)OCO2 | -0.9 | 4 | 1 | -2 | 16 | 4.5% | -6%
O=C(COC(=O)c1cncc(Br)c1)NCc1ccc(F)cc1 | -1.7 | -7 | -10 | 5 | -19 | 0.3% | 24%
O=c1cc(Cl)[nH]n(-c2ccccc2)c1=O | -2.6 | -1 | 12 | -2 | -4 | -0.1% | 15%
CCN(CC)C(=O)C(Oc1ccc(C)nc1[N+](=O)[O-])c1ccccc1 (stereo not given) | -4.6 | -1 | -2 | -3 | 11 | 6.5% | 17%
CCOc1ccc2sc(NS(=O)(=O)c3ccc(OC)c(OC)c3)nc2c1 | -0.1 | 0 | -6 | -2 | 8 | 0.6%[38.3 µM] | -4%
COc1ccc(-c2cc(C(F)F)n3ncc(C(=O)NCCCN4CCCC4=O)c3n2)cc1 | -4.0 | -9 | -1 | 2 | ? | 1.0% | 11%
CN/N=C/c1ccc(C#N)cc1 | -5.5 | -8 | 11 | 3 | -3 | 0.4% | 25%
O=C(Oc1ccccc1Cl)c1ccccc1 | -1.5 | -20 | 36 | 13 | . | 4.5% | .
Brc1ccc(-c2csc(Nc3nc(-c4ccc(Br)cc4)cs3)n2)cc1 | 1.7 | -9 | -2 | -5 | ? | 6.7% | 13%
COc1ccc(NC(=O)c2ccc(-n3nc(C)cc3C)cc2)cc1OC | 2.7 | -4 | -8 | 3 | -34 | 1.1% | 7%
CCN(c1ccccc1)S(=O)(=O)c1ccc(N)cc1 | -0.6 | -5 | 2 | 0 | 3 | -0.1% | -1%
Cc1ccccc1Cn1c(-c2ccc(=O)[nH]c2)nc2ccccc21 | -4.9 | -5 | . | 8 | -6 | 0.2% | -15%
CC(NS(=O)(=O)c1ccc(N)cc1)C1CC2CCC1C2 (stereo not given) | 1.1 | 3 | 13 | 7 | 3 | 0.7% | -16%
O=C(Nc1ccnc(-c2ccncc2)n1)c1ccc(Cl)cc1 | -1.4 | -4 | . | -1 | ? | 1.9% | -1%
O=C(C[C@@H]1C/C=C\C[C@H](Cc2ccc(F)cc2)C(=O)OC[C@H]2CCCN2C1=O)N[C@H](CO)Cc1ccccc1 | 4.4 | 11 | 2 | 3 | . | 1.1% | .
Cc1cnc(C(=O)OCC(=O)NCc2ccccc2)cn1 | -0.2 | -3 | 9 | 3 | -18 | -0.9% | 13%
C[C@@H]1CN([C@H](C)CO)C(=O)c2cc(NS(=O)(=O)c3cn(C)cn3)ccc2O[C@H]1CN(C)C(=O)Nc1ccccc1 | -3.0 | -8 | 5 | 1 | . | 0.2% | .
CC(Oc1ccc(F)cc1)C(=O)Nc1ccccc1N1CCCCC1 (stereo not given) | -4.5 | -12 | 41 | 13 | -16 | ? | -2%
CCOC(=O)C1CCCN(C(=O)COc2ccc(C(=O)c3ccccc3)cc2)C1 (stereo not given) | -0.4 | -4 | 6 | -10 | 18 | 2.6% | .
O=C(Nc1ccc2c(c1)OCCO2)C(CCc1ccccc1)N(Cc1ccccc1)Cc1ccccc1 (stereo not given) | -3.0 | -1 | -9 | -12 | . | 3.3% | .
Cc1cc(C)c(C#N)c(OCC(=O)c2ccccc2)n1 | -3.1 | -7 | 1 | 2 | ? | 1.3% | 0%
COCCNC(=S)N(CCc1c(C)[nH]c2ccc(F)cc12)Cc1ccc(C)cc1 | -4.3 | -3 | -9 | -13 | -2 | ? | 13%
Cc1cc(C)c(S(=O)(=O)/N=C2\C=C(NS(=O)(=O)c3ccccc3)C(=O)c3ccccc32)c(C)c1 | ? | 6 | -2 | 4 | 3 | -0.5% | -15%
FC(F)C(F)(F)Oc1cccc(Nc2nccn3c(-c4ccc5ccccc5c4)cnc23)c1 | 2.9 | 6 | -17 | -19 | . | -0.2% | .
CCCC(C(=O)NC1CCCCC1)N(CC1CCCO1)C(=O)CNS(=O)(=O)c1ccc(F)cc1 (stereo not given) | -2.6 | -6 | -1 | 10 | -12 | -0.8% | -1%
Cc1cccc2cc(CN(Cc3nnnn3Cc3ccco3)C3CCCC3)c3nnnn3c12 | -1.4 | -3 | -14 | -4 | -2 | 1.9% | 4%
Cc1c(C(=O)Nc2nnc(C3CC3)s2)oc2ccccc12 | 5.1 | -1 | 6 | 9 | 4 | 4.0% | .
CN(Cc1ccccc1)S(=O)(=O)c1ccc2c(c1)n(C)c(=O)n2C | 0.2 | -1 | -4 | -3 | -5 | 1.0% | 16%
CC(C)CCn1c(NCCc2ccccc2)nc2c1c(=O)n(C)c(=O)n2C | 5.1 | -1 | 0 | -7 | 17 | 1.6% | -1%
Cc1cccc(C)c1NC(=O)COC(=O)Cc1ccsc1 | 0.3 | -8 | 2 | 6 | 1 | -1.8% | 17%
COc1ccccc1OCc1ccc(C(=O)N2CCN3CCCC3C2)cc1 (stereo not given) | -0.6 | -7 | -1 | -3 | -8 | 3.8% | 8%
COc1cccc(/C=N\NC(=O)c2ccc(C)nc2)c1 | -1.9 | -7 | -1 | 10 | 3 | -0.6% | 18%
CCC1(c2ccc(F)cc2)NC(=O)N(CC(=O)Nc2cccc(S(=O)(=O)N3CCCC3)c2)C1=O (stereo not given) | -1.0 | -2 | 4 | -2 | . | 1.0% | .
CC(=O)Nc1ccc(S(=O)(=O)NCc2ccc(C(=O)NCCN(C)Cc3ccccc3)cc2)cc1 | -5.0 | -8 | -8 | -10 | . | 0.6% | .
Cc1ccc(S(=O)(=O)CCC(=O)N2CCN(c3ccccc3O)CC2)cc1 | 1.3 | -2 | 0 | -2 | . | 1.6% | .
c1ccc(CN2CCN(Cc3c[nH]c4ccccc34)CC2)cc1 | 1.2 | -18 | -4 | -1 | 10 | 0.4% | 10%
COc1ccc(/C=N/N=C/c2ccc(OC)c(OC)c2)cc1OC | -3.7 | 1 | 2 | 2 | -4 | -0.9% | 8%
O=C(Nc1cccn(Cc2ccccc2Cl)c1=O)NC1CCCCC1 | 2.2 | -8 | 0 | -4 | -7 | 6.1% | 1%
Cc1ccc(S(=O)(=O)N2C[C@H]3N(C(=O)OC(C)C)N(C(=O)OC(C)C)C[C@H](OC(=O)Nc4c(C)noc4C)[C@@]3(O)C2)cc1 | -9.0 | 0 | 2 | -4 | . | 2.2% | .
CCc1c(C)sc(NC(=O)c2ccoc2C)c1C(N)=O | -1.8 | -7 | -9 | -25 | 8 | 2.1% | 11µM*
CC(=O)Nc1ccc(NC(=O)COC(=O)[C@@H]2CCCN2C(=O)c2cccs2)cc1 | 0.0 | 2 | -2 | -6 | . | 4.8% | .
COc1ccc(Cl)cc1S(=O)(=O)NCc1cccnc1 | -1.8 | -5 | 1 | 3 | -12 | 5.0%[38.3 µM] | 11%
COC(=O)C1=C(C(=O)OC)[C@]2([C@H]3CCCCN[C@@H](Cc4ccccc4)C(=O)N3Cc3ccccc3)C=C[C@H]1O2 | -2.2 | -12 | . | -18 | . | 2.1% | .
CC(C)Cn1c(SCC(=O)c2c(N)n(C)c(=O)n(C)c2=O)nc2ccccc21 | -1.8 | -9 | 0 | 1 | -4 | 28% | 15%
O=C(CCCn1c(=S)[nH]c2cc3c(cc2c1=O)OCO3)NCc1cccc(Cl)c1 | 1.8 | -8 | . | 0 | -38 | 4.4% | 15%
CCOC(=O)NC(=O)COC(=O)c1cccc2ccccc12 | -5.6 | 3 | -10 | 6 | -9 | 3.2% | 12%
CC(=O)c1cccc(Nc2cc(C)nc3c(C)cccc23)c1 | -3.5 | -14 | -2 | 2 | -6 | 0.7% | -23%
CC12CCC(C(=O)N/N=C/c3ccc(O)cc3)(OC1=O)C2(C)C (stereo not given) | -3.4 | -10 | -19 | -2 | 0 | 0.5% | 20%
O=C(NCCNC(=O)C(c1ccccc1)c1ccccc1)c1ccco1 | -2.3 | 4 | 8 | 4 | -14 | -4.1% | 6%
CCOc1ccc(CCNC(=O)CSc2nc3ncc(Cl)cc3[nH]2)cc1OCC | -2.4 | -5 | -6 | 24 | -16 | -1.2% | 6%
Cc1ccc(C2=N/C(=C\c3c(C)nn(-c4ccccc4)c3N3CCCC3)C(=O)O2)cc1 | -2.2 | -10 | . | 0 | -5 | -0.3% | -12%
CCCN(CC(=O)Nc1ccccc1OC)C(=O)c1ccccn1 | -0.8 | 5 | -2 | -8 | . | 1.6% | .
COc1ccc(N2CCN(C(=O)CCS(=O)(=O)c3cccc4nsnc34)CC2)cc1 | -2.0 | -3 | 13 | -3 | -17 | 2.8% | -17%
Cc1cccc(OCCCC(=O)Nc2ccc(Br)cc2)c1 | -3.2 | -14 | 20 | 11 | -10 | -0.2% | 12%
CN(CCCCCCCCC(=O)/C=N/O)Cc1ccccc1 | -0.2 | -28 | 9 | -2 | -1 | -2.2%[38.3 µM] | 18%
CCO[C@H]1OC(C(=O)N2CCN(C)CC2)=C[C@@H](C(C)(C)C)[C@@H]1CCCO | -1.5 | -11 | 0 | 5 | 17 | -0.9% | 7%
Cc1ccc(OCCNC(=O)c2cc(C(=O)NCCOc3ccc(C)cc3)cc([N+](=O)[O-])c2)cc1 | 4.0 | 21 | -18 | -15 | 13 | 0.0% | 14%
CCOc1ccc(CCNC(=O)COC(=O)COc2ccc(C(C)=O)cc2)cc1OCC | -1.1 | -17 | -8 | -10 | 2 | 5.2% | .
CCC(C)NC(=O)c1cccc(C)c1 (stereo not given) | 3.6 | 0 | 8 | 2 | -4 | 1.9% | 14%

2 of the compounds above, field by field:
CCO[C@H]1OC(C(=O)N2CCN(C)CC2)=C[C@@H](C(C)(C)C)[C@@H]1CCCO
  D2 ag: -1.5; D2 potentiator: -11; CtBP-E1A blk: 0; Six1-Eya2 blk: 5; TRPV1 PAM: 17; PINK1 expr mod: -0.9%; Sfp PPTase inh: 7%

Cc1ccc(OCCNC(=O)c2cc(C(=O)NCCOc3ccc(C)cc3)cc([N+](=O)[O-])c2)cc1
  D2 ag: 4.0; D2 potentiator: 21; CtBP-E1A blk: -18; Six1-Eya2 blk: -15; TRPV1 PAM: 13; PINK1 expr mod: 0.0%; Sfp PPTase inh: 14%
